Screens: PubChem BioAssay, National Center for Advancing Translational Sciences (NCATS)
D2 PAM: Beta-Arrestin HTS for Positive Allosteric Modulators of the Human D2 Dopamine Receptor: Potentiators; AID 624464, 2012; actives 0.23% (n = 360,000); potentiation, % (concentration not given with the values); D(2) dopamine receptor (Homo sapiens), P14416; DiscoveRx D2 beta-arrestin cells, luminescence, 90 min; 100% = 57 uM dopamine signal; active = potentiation of 50% or more; inconclusive = 30% to 50%; inactive = 30% or less;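 further: compound concentration not given in the record; tested on top of an EC20 dose of dopamine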
Target sequence (P14416 whole entry, looked up): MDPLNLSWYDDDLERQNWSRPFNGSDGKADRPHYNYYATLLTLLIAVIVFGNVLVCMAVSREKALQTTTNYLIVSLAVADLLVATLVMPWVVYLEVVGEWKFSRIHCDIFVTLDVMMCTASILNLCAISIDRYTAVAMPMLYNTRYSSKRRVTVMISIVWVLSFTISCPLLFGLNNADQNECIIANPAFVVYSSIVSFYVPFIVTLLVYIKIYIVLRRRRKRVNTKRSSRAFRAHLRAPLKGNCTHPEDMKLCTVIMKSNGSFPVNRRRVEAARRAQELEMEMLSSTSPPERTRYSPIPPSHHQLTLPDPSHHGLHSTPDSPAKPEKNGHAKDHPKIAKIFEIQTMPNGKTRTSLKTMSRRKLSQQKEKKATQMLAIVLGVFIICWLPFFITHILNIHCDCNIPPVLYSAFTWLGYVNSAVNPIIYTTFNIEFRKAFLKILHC
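PathHunter D2 cells, attached overnight at 37 deg C, received compound in DMSO plus dopamine at EC20 (50 nM final) for 90 min at 37 deg C. Beta-arrestin recruitment was read as luminescence after 1 h with detection reagent at ambient temperature.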
PINK1 expr mod: A Quantitative High throughput Screen to Identify Chemical Modulators of PINK1 Expression; PINK1 immunofluorescence, high-content cytometry, 24 h; Potency, µM (top dose mostly 76.6 µM), for inactives: at the top dose activation (PINK1 increase), usual class: activators; actives 0.2% (n = 410,000); AID 624263, 2012; active = well fitted activation curve with a large enough effect; inconclusive = small, poorly fitted or top-dose-only effect; inactive = flat fitted curve, though single readings scatter; cell line not stated here;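 further: potency means the concentration at half of the fitted maximal effect; % of control where 0% means no effect; nearly all actives have a fitted effect of over 65% in size; a mitochondrial uncoupler was the plate control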
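A stable cell line was treated with compounds at 5 concentrations for 24 hours, with CCCP as control. PINK1 levels and mitochondrial localization were measured by immunofluorescence with mitochondrial, cell and nuclear markers after fixation, read by laser-scanning cytometry.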
Six1-Eya2 blk: qHTS Assay for Inhibitors of the Six1/Eya2 Interaction. actives 0.56% (n = 360,000). AID 651725, 2012. AlphaScreen GST-Six1/His-Eya2 binding, biochemical; active compounds read low; control for the full effect not named in the record. activity change, % (test concentration not listed); in the data active = activity change below about -65%; inconclusive = about -30% to -65%; inactive = above about -30%; further: on the % scale 0 is the no-effect control and ±100 the full control effect
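Homogeneous AlphaScreen proximity assay pairing GST-Six1 with His-tagged Eya2 (added as 5X mix: 250 nM and 500 nM) in 50 mM Tris pH 8.0, 300 mM NaCl, 1 mM TCEP. Glutathione donor and nickel acceptor beads; 1 h, 37 °C, dark.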
D2 agonist: Beta-Arrestin HTS for Positive Allosteric Modulators of the Human D2 Dopamine Receptor: Agonists. activation, % (concentration not given with the values). DiscoveRx PathHunter D2 beta-arrestin, luminescence, 90 min; 100% = 57 uM dopamine signal. AID 624465, 2012. D(2) dopamine receptor (Homo sapiens), P14416. actives 0.084% (n = 360,000); in the data active = activation above about 40%; inconclusive = about 15% to 40%; inactive = below about 15%; further: compound concentration not given in the record; the text of the record calls up to 30% inactive
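Agonist mode: compounds alone added to overnight-plated D2 PathHunter cells for 90 min at 37 C, with 57 uM final dopamine (EC100) defining full response. Beta-arrestin recruitment detected by chemiluminescent reagent, read after 1 h at ambient temperature.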
CtBP-E1A inh: qHTS Assay for Inhibitors of the CtBP/E1A Interaction; activity change, % (concentration not given with the values); actives 0.49% (n = 340,000); CtBP / adenovirus E1A interaction (AlphaScreen); AlphaScreen GST-E1A/His-CtBP binding, 1536-well; active compounds read low; control for the full effect not named in the record; in the data active means activity change below about -65%; inconclusive means about -30% to -65%; inactive means above about -30%; further: on the % scale 0 is the no-effect control and ±100 the full control effect
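GST-E1A and His-tagged CtBP (125 nM each as 5X stock) were preincubated with pin-transferred compound for 2 h at 37 °C in the dark, then glutathione donor and nickel acceptor beads were added for 1 h before AlphaScreen reading.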
TRPML1 ag: qHTS for Agonists of the Human Mucolipin Transient Receptor Potential 1 (TRPML1); Mucolipin-1 (Homo sapiens), Q9GZU1; TRPML1-expressing cells, Ca2+ dye fluorescence, FDSS; host cell line not named in the record; reference of the full effect not given here; activation, % (concentration not given with the values); actives 0.12% (n = 410,000); in the data active = activation above about 50%; inconclusive = about 30% to 50%; inactive = below about 30%; further: 0% is about no effect; the text of the record puts the active cut at 80%
Target sequence (Q9GZU1 whole entry, looked up): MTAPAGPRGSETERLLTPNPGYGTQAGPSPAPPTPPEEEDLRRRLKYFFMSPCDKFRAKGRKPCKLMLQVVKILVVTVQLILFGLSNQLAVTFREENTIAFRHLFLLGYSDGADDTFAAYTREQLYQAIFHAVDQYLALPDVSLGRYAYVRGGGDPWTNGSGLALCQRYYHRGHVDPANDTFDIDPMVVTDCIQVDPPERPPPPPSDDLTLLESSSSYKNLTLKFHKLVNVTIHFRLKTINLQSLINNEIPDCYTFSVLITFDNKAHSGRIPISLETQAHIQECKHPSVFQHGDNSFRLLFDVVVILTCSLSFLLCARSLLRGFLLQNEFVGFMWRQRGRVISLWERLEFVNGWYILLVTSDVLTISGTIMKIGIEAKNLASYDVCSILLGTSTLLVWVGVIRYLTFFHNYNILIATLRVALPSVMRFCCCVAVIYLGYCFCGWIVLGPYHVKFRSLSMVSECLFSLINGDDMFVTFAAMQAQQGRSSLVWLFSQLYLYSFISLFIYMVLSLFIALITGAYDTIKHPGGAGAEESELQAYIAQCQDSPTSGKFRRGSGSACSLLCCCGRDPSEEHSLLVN
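Tet-induced TRPML1-DL cells, 1,500 per well, cultured overnight, were loaded with a no-wash Ca2+ dye for 45–90 min. Calcium fluorescence was recorded on the FDSS for 110 s after compound addition, before the EC80 agonist (4 uM 54-4) was added.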
The depositor's hits bear a star; ? = inconclusive; . = not tested or not shown; & = joins results of further samples; [ ] = dose if it differs, or a comment.

smiles | D2 agonist | CtBP-E1A inh | Six1-Eya2 blk | D2 PAM | TRPML1 ag | PINK1 expr mod
O=C1C=C(Nc2ccccc2)CC(c2ccccc2)C1 (configuration not stated) | -0.3 | -7 | 2 | -3 | -0.6 | 3.5%
CC(C)CC1(C(=O)NCc2ccccn2)C=CCN1C(=O)c1ccccc1 (configuration not stated) | -1.6 | 2 | 3 | 1 | -1.2 | -0.3%
CC(NC(=O)CCl)c1ccccc1Br (configuration not stated) | -4.7 | -4 | 3 | -10 | -0.5 | -0.4%
Cc1cccc(NC(=O)CN2C(=O)N/C(=C/c3ccc(-c4cccc(C(=O)O)c4C)o3)C2=O)c1 | 0.3 | -16 | -5 | 0 | -0.2 | 2.9%
COc1ccc(NC2CCCN(C(=O)COc3ccc(C)cc3)C2)cc1 (configuration not stated) | -5.3 | 6 | -17 | -20 | 1.9 | -1.5%
O=c1[nH][nH]c(=O)c2c1[nH]c(=S)n2Cc1ccccc1 | -3.6 | -8 | -4 | -7 | 1.7 | 0.8%
Cc1ccc(OCc2nnc(SCC(=O)N3c4ccccc4Sc4ccc(Cl)cc43)o2)cc1 | 15 | -4 | 0 | 50* | 0.5 | 0.5%
CCOc1cccc(C(=O)Nc2nnc(-c3ccco3)s2)c1 | -1.9 | 0 | 21 | -31 | 0.0 | 8.8%
CNS(=O)(=O)c1ccc(N2CCCC2=O)c([N+](=O)[O-])c1 | -4.5 | -22 | -3 | -2 | 0.4 | 0.0%
O=C(COC(=O)c1ccc2ncsc2c1)Nc1ccccc1Cl | -2.9 | 2 | 0 | 14 | 2.1 | 1.0%
O=C(Nc1ccc(N=Nc2ccccc2)c(NC(=O)C2CCCO2)c1)C1CCCO1 (configuration not stated) | -0.2 | 1 | ? | -11 | -0.4 | -3.3%
CC(C)C[C@@H](CN1CCC[C@@H]1CN1C(=S)NC[C@@H]1Cc1ccc(O)cc1)N1C[C@H](Cc2ccccc2)N(CCc2ccccc2)C1=S | 2.1 | -11 | -12 | -6 | -0.2 | -0.3%
CCN(CC)CCNC(=O)C(=O)NCC1OCCN1S(=O)(=O)c1cccs1 (configuration not stated) | -2.2 | 3 | -4 | -23 | 0.3 | -0.9%
O=C(Nc1ccc(N2CCCCC2)c(Cl)c1)c1ccc(N2CCOCC2)c([N+](=O)[O-])c1 | -2.8 | 4 | -16 | -15 | 23 | .
Cc1cc(C)c2cc(C(=O)Nc3ccc(C)c(F)c3)[nH]c2c1 | 2.9 | -18 | -7 | -35 | 3.0 | 2.5%

Exported with two lines to a compound: entries from further up.
Each structure is followed by: D2 agonist, CtBP-E1A inh, Six1-Eya2 blk, D2 PAM, TRPML1 ag, PINK1 expr mod
O=C1C=C(Nc2ccccc2)CC(c2ccccc2)C1 (configuration not stated)
 : -0.3, -7, 2, -3, -0.6, 3.5%
CC(C)CC1(C(=O)NCc2ccccn2)C=CCN1C(=O)c1ccccc1 (configuration not stated)
 : -1.6, 2, 3, 1, -1.2, -0.3%
CC(NC(=O)CCl)c1ccccc1Br (configuration not stated)
 : -4.7, -4, 3, -10, -0.5, -0.4%
Cc1cccc(NC(=O)CN2C(=O)N/C(=C/c3ccc(-c4cccc(C(=O)O)c4C)o3)C2=O)c1
 : 0.3, -16, -5, 0, -0.2, 2.9%
COc1ccc(NC2CCCN(C(=O)COc3ccc(C)cc3)C2)cc1 (configuration not stated)
 : -5.3, 6, -17, -20, 1.9, -1.5%
O=c1[nH][nH]c(=O)c2c1[nH]c(=S)n2Cc1ccccc1
 : -3.6, -8, -4, -7, 1.7, 0.8%
Cc1ccc(OCc2nnc(SCC(=O)N3c4ccccc4Sc4ccc(Cl)cc43)o2)cc1
 : 15, -4, 0, 50*, 0.5, 0.5%
CCOc1cccc(C(=O)Nc2nnc(-c3ccco3)s2)c1
 : -1.9, 0, 21, -31, 0.0, 8.8%
CNS(=O)(=O)c1ccc(N2CCCC2=O)c([N+](=O)[O-])c1
 : -4.5, -22, -3, -2, 0.4, 0.0%

(continued)
smiles | D2 agonist | CtBP-E1A inh | Six1-Eya2 blk | D2 PAM | TRPML1 ag | PINK1 expr mod
NC(=O)c1ccccc1NC(=O)CCN1C(=O)c2ccccc2C1=O | -1.4 | 0 | 2 | -21 | 0.4 | 5.2%[38.3 µM]
O=C(CSc1nc2ccccc2c(=O)n1NC(=O)Cc1ccccc1)NCc1ccco1 | -3.1 | -20 | -16 | 2 | -0.1 | 5.5%[38.3 µM]
C=CCN=C1N[C@@H](c2ccccc2)C(C(=O)OC)=C(C)N1CCOC | -2.8 | 3 | 4 | -6 | -0.3 | -0.6%
COCCNC(=O)C(=O)NNS(=O)(=O)c1ccc2ccccc2c1 | -1.6 | 2 | 1 | -7 | 0.0 | 0.1%
COc1ccc(/C=C(/CC(=O)Nc2ccc(C)cc2)c2nc3ccccc3s2)cc1 | -4.4 | -2 | 3 | -8 | -0.3 | 3.4%
Cc1ccc(CNC(=O)CCC2CCCN(Cc3ccc4cccc(F)c4n3)C2)o1 (configuration not stated) | -3.9 | 0 | 2 | -22 | -0.5 | -0.7%
CCCCC(CC)CNC(=O)Cn1c(=O)[nH]c2ccsc2c1=O (configuration not stated) | -3.4 | . | -2 | 11 | 1.1 | -1.1%
O=C(Nc1nccs1)c1ccc(-c2ccccc2Cl)o1 | 0.2 | -18 | -7 | -4 | 2.2 | 0.7%[38.3 µM]
Cc1ccccc1-c1nnc(SCC(=O)Nc2ccc3c(c2)OCCO3)n1N | -0.1 | 2 | -1 | -19 | 0.2 | -0.4%
CCOC(=O)c1cnc2ccc(Br)cc2c1NCCO | -1.8 | 2 | -1 | 2 | 0.3 | .
N#CC(C#N)c1ccnc2ccccc12 | -10 | -6 | -16 | -12 | -0.4 | 1.2%
O=[N+]([O-])c1ccc(NNC(=S)Nc2ccccc2)cc1 | -6.3 | -11 | ? | -9 | -0.3 | 14µM*
CC(C)CC(NC(=O)C1CCC(C)CC1)C(=O)NCCN1CCOCC1 (configuration not stated) | -0.8 | -1 | 19 | -5 | -0.1 | 0.0%
CSc1nc2ccc3nc(NC(=O)c4ccc(C)cc4)sc3c2s1 | 3.8 | 4 | 2 | -3 | -0.7 | 3.8%
CCSc1nnc(NC(=O)[C@H](C)NC(=O)c2ccccc2Cl)s1 | -2.8 | -9 | 12 | 0 | -1.3 | 0.9%
CC(=O)c1ccc(Nc2nc(=O)c3cccnc3s2)cc1 | -3.0 | -6 | -3 | -13 | -0.4 | -0.6%
Cc1ccc(NC(=O)C2CCN(S(=O)(=O)c3ccc4c(c3)NC(=O)C(C)S4)CC2)cc1C (configuration not stated) | -0.2 | -1 | -6 | -36 | -0.8 | 0.5%
Cc1cccn2c(=O)c3cc(C(=O)NCCN4CCOCC4)c(=N)n(CCc4ccccc4)c3nc12 | -4.1 | ? | ? | 0 | -0.5 | -1.6%
Cc1cnc(C(=O)OCC(=O)NC(=O)NC(C)C)cn1 | -4.1 | 0 | -2 | -16 | -0.6 | -1.6%
Cc1ccc(S(=O)(=O)NC(=O)C2(C)CCN2C(=O)C2(c3ccc(Cl)cc3)CC2)cc1 (configuration not stated) | -3.2 | 1 | 2 | -11 | -0.3 | -0.1%
O=C(Nc1nnc(-c2ccccc2)o1)C1CCCN1S(=O)(=O)c1cccs1 (configuration not stated) | -3.0 | -20 | -28 | -8 | 0.6 | 0.1%
Cc1nc(NC(C)c2ccccc2)c2oc3ccccc3c2n1 (configuration not stated) | -0.7 | 0 | -6 | 10 | 2.5 | 2.3%
O=S1(=O)CCOC[C@H](Cc2ccccc2)N1Cc1cccc(F)c1 | -2.4 | 11 | 1 | -13 | -0.3 | 1.5%
O=C(O)c1ccccc1SC1CC(=O)N(c2cccc3ccccc23)C1=O (configuration not stated) | -1.3 | -11 | -1 | -2 | 1.2 | 7.8%
Cc1ccc(OCC(=O)NNC(=O)C(C)Sc2ncnc3sc(C)c(C)c23)cc1 (configuration not stated) | -1.7 | -8 | -14 | 5 | 0.7 | -1.9%
Cc1ccc2oc(=O)ccc2c1 | 14 | 0 | -1 | 0 | -0.6 | 0.6%
CC1(C(=O)NS(=O)(=O)c2ccc(C#N)cc2)CCN1C(=O)CC1CCCCC1 (configuration not stated) | 1.9 | 31 | 17 | 6 | -0.3 | 1.1%
Cc1ccc(NC(=O)Cn2ncn3c(cc4ccccc43)c2=O)cc1F | -3.1 | -1 | 0 | -15 | -0.5&-1.0 | 4.0%&3.4%
CC(C)Cc1ccc(CN2CCC(n3nccc3NC(=O)C3CCCC3)CC2)cc1 | 1.7 | -5 | -8 | -3 | -0.4 | 3.6%
COc1ccc(C(C)C)cc1S(=O)(=O)N1CC(C)OC(C)C1 (configuration not stated) | 3.3 | 6 | 3 | -1 | -0.2 | 1.3%
O=C1CN(C(=O)c2ccc3nc(Cc4cccc(Cl)c4)oc3c2)CCN1 | -0.9 | 5 | -1 | -2 | -0.3 | 2.7%
COc1cc(C(C(=O)NC2CCCCC2)N(C(=O)Cc2c[nH]c3ccccc23)c2ccc(C)cc2)cc(OC)c1OC (configuration not stated) | -1.8 | -30 | ? | -11 | 1.9 | 5.2%
COc1ccc(Cn2ccnc2SCC(=O)Nc2ccccc2)cc1 | 3.2 | 4 | 17 | -8 | 1.2 | 0.8%
COCCN(C(=O)Cn1c(C(F)(F)F)nc2ccccc21)c1c(N)n(Cc2ccccc2)c(=O)[nH]c1=O | 0.3 | 10 | -1 | -3 | -0.6 | 3.4%
O=C(Cn1nnc(-c2ccccc2)n1)N/N=C/c1ccco1 | 7.0 | 5 | 0 | -3 | 4.9 | 2.3%
COc1cccc(NC(=O)COC(=O)c2c3c(nc4ccccc24)CCC(C)C3)c1 (configuration not stated) | 1.8 | -12 | -17 | 11 | 3.8 | ?
O=C(O)C1CCCCC1C(=O)OCCCCOC(=O)C1CCCCC1C(=O)O (configuration not stated) | -4.3 | 15 | 10 | -2 | 0.3 | 1.2%
CCOC(=O)Cn1nc(-c2ccc(Cl)cc2)ccc1=O | -1.9 | 8 | -2 | 1 | 0.7 | 6.4%[38.3 µM]
O=C(CCN1C(=O)c2ccc([N+](=O)[O-])cc2C1=O)Nc1cccc(O)c1 | ? | 2 | -2 | 63* | 1.8 | 6.7%
CCCc1cc(C(=O)Nc2sc3c(c2C(=O)OCC)CCCC3)no1 | -2.6 | 0 | -3 | 0 | -0.1 | 1.4%
